Screening data (PubChem)
Rce1 inh – yeast Ras-converting enzyme inhibition; yeast membranes, quenched prenylated peptide cleavage fluorescence; Q03530; actives 0.27% (n = 290,000); calls only;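 active = fall in fluorescence gain of 50% or more versus controls, with final raw signal at or below 3038400; inconclusive = same 50% fall but final raw signal above 3038400; inactive = fall in fluorescence gain under 50%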;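 note: plate controls were neutral control wells for no effect and wells lacking membranes for full effect; tested at 10 µM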
Target sequence (Q03530 whole entry, looked up): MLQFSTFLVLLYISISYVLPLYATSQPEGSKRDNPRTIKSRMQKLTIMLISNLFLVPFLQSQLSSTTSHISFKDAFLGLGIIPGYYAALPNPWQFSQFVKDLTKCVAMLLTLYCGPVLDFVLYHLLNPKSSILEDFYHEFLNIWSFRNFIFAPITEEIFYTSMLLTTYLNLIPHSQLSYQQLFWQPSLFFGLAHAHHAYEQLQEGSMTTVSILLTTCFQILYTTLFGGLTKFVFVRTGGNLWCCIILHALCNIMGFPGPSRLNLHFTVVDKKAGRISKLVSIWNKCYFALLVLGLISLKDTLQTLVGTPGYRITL
eIF4H inh – inhibitors of RNA binding by human eIF4H | inhibition, % at 35 µM | eIF4H fluorescence polarization binding assay | actives 0.94% (n = 290,000) | Q15056;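 active = 50% or more with normal probe brightness, or confirmed in later tests; inconclusive = above 50% with abnormal brightness, or retests that disagree; inactive = below 50% or failed in later tests; about a fifth of its hits are not listed in these tables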;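 note: calls also rest on retests at 20 µM and on dose response follow-up; 0% = protein and probe with vehicle and 100% = probe without protein; strong numbers were not always called active; many hits fall short of the cut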
UUG fidelity – yeast start codon fidelity modulation; S. cerevisiae UUG-firefly luciferase reporter, luminescence/redox ratio; activity score, % at 18.7 µM; actives 0.13% (n = 350,000); AID 602363;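 active = replicate mean at a twofold rise or more, about +100% in these data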;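 note: firefly luciferase made from a UUG start codon reports start codon fidelity; reporter light over untreated wells divided by growth signal over untreated wells; some hits fall short of that in this replicate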
CSC inhib – blocks cancer stem cells; actives 1.1% (n = 300,000); inhibition, % at 7.5 µM; AID 2717; cancer stem cell-like cells viability, luminescence;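 active = mean at 75% or more and at least half the replicates too; inconclusive = mean and replicates disagree; tested in HMLE shEcad cells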;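 note: 0% = median of negative and 100% = median of positive control wells; the first replicate is given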
PABP FP inh – blocks human PABP binding to poly(A) RNA; P11940; AID 2014; fluorescence polarization; inhibition, % at 35 µM; actives 1% (n = 290,000);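 active = 50% or more with normal probe brightness, or confirmed in later tests; inconclusive = above 50% with abnormal brightness, or retests that disagree; inactive = below 50% or failed in later tests; about a fifth of its hits are not listed in these tables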;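 note: calls also rest on retests at 20 µM and on dose response follow-up; controls were probe without protein and protein plus probe with vehicle; some compounds called inactive have numbers as strong as hits; many hits fall short of the cut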
MT1-MMP act inh – inhibitors of human MT1-MMP activation; HT1080 RFP-PRO-GFP cells, GFP/RFP ratio fluorescence, overnight; percent of plate control window, DMSO zero; GFP/RFP ratio change, % at 20 µM; actives 0.061% (n = 360,000);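 active = GFP/RFP ratio change of at least 30% with cell ATP level not reduced by more than half and red fluorescence within 50% of control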; note: strong numbers were not always called active
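Assay system: RFP-PRO-GFP reporter HT1080 cells; read-out basis: GFP/RFP fluorescence ratio; benchmarks: DMSO wells and RFP-L50D-GFP cells; doses: 20 µM single dose, 1% DMSO; schedule: overnight cell settling, then overnight compound exposure, 37 °C, 5% CO2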
HIV Env fusion – inhibitors of HIV Env-mediated cell fusion. HeLa-JRFL Env/CEM21 cell fusion, luciferase. inhibition, % at 12.3 µM. actives 1.1% (n = 360,000). AID 651610;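 active = mean replicate inhibition score of at least 50 and every replicate individually at or above 50; inconclusive = only one of the two criteria met; inactive = mean below 50 and not all replicates reaching 50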;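 note: 0% = plate neutral controls and 100% = maraviroc near 300 nM; one replicate is shown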
eIF4H inh retest – further read-out of eIF4H inh, marked with its call; inhibition, %; compound at 20 µM; confirmation average;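 mean of two retest wells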
PABP FP inh retest – recorded beside PABP FP inh, whose call it bears; inhibition, %; compound at 20 µM; confirmation repeats;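 mean of two retest wells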
MT1-MMP act inh RFP – recorded beside MT1-MMP act inh, whose call it bears; RFP signal change, %; measured here: RFP expression control read;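 0 = vehicle wells; hits needed this value within 50% of zero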
Starred values were filed as active, the others as inactive; i = inactive; ? = inconclusive; / = not tested or not shown.

SMILES	Rce1 inh	eIF4H inh	UUG fidelity	CSC inhib	PABP FP inh	MT1-MMP act inh	MT1-MMP act inh RFP	HIV Env fusion	others
CCn1c(=O)cc(SCC(=O)N2CCCCC2)c2ccccc21	i	0	2	-12	-2	11	5	20
N#Cc1nc(-c2ccco2)oc1NCc1cccnc1	i	-4	/	-9	0	3	0	/
COc1ccccc1NC(=O)Nc1ccnn1C1CCN(C(=O)c2cccnc2)CC1	i	0	-24	-2	-4	-1	0	2
O=C(Cn1ncc2c([nH]c3ccccc32)c1=O)Nc1ccc(F)cc1F	i	-8	-12	-3	0	-1	4	-22
Cc1ccc(NC(=O)C2SC(=Nc3ccccc3)C(C(=O)Nc3ccc(Cl)cc3)=C2N)cc1 (stereo not drawn)	/	0	/	/	0	3	5	/
O=C(O)c1cn(-c2ccc(N3CCCC3)c(F)c2)c2c(F)c(F)c(F)cc2c1=O	i	33	/	-1	-8	-8	4	13
COc1ccc(CNc2nc(NCc3ccc(OC)cc3)n(C(=O)c3ccncc3)n2)cc1	i	-2	/	/	1	-6	1	11
Cc1ccc(CNC(=O)COC(=O)CSc2ccc(Br)cc2C)cc1	i	-12	-8	-9	48	3	4	-34
CN1CCc2[nH]c3ccc(C(=O)NN)cc3c2C1	i	-2	-6	-4	2	1	2	16
Cc1ccc(CN2CCC(C(=O)Nc3cccc(-c4cccc(F)c4)c3)CC2)o1	i	/	-5	-6	/	2	3	-9
CCOc1ccccc1CNc1nc2nc3c(c(=O)n2[nH]1)CCC3	i	-2	-19	/	2	3	2	/
COc1ccc(C(=O)NCc2ccc(C)cc2)cc1S(=O)(=O)N1CCCc2ccccc21	i	5	-11	9	10	1	-1	-83
CC(Oc1ccccc1)C(=O)Nc1nnc(S(=O)(=O)N2CCCCCC2)s1 (stereo not drawn)	i	-10	7	12	-6	3	-6	0
NC(=O)c1ccsc1NC(=O)COC(=O)c1ccc(Cl)nc1	i	/	-11	-2	/	3	5	-7
O=C(c1ccc(C(=O)N2CCOCC2)s1)N1CCOCC1	i	-3	-8	-3	4	-1	4	23
CC(C)CCN1CCN(Cc2ccc(Oc3ncccn3)cc2)CC1CCO (stereo not drawn)	i	5	-17	-7	-6	2	1	-6
O=C(O)/C(=C\c1ccccc1OC(F)F)c1ccc(-c2ccccc2)cc1	i	22	-8	-10	-6	1	4	-3
Cc1ccccc1Cn1nnc2c1C(=O)c1ccccc1C2=O	/	/	-12	44	/	5	4	-2
O=C(c1ccc(COCC(F)(F)F)cc1)N1CCN(c2ccccn2)CC1	i	-1	/	-6	10	-1	0	-21
OCC1(CCOc2ccccc2)CCN(Cc2cn[nH]c2-c2ccccc2)CC1	i	3	/	-10	-7	3	1	-52
CN(C1CCCCC1)S(=O)(=O)c1cn(C)c(=O)n(C)c1=O	/	/	-2	-7	/	-4	3	/
O=C(NCc1ccc(F)cc1)c1ccc2c(=O)n3c(nc2c1)CCCCC3	i	-5	-16	/	3	-2	-1	?
CC12CCC(C(=O)NC(c3ccccc3)c3ccccc3)(OC1=O)C2(C)C (stereo not drawn)	i	2	/	3	0	-4	-2	1
O=C1CSC(=S)N1c1ccc(Cl)c(Cl)c1	i	-2	-15	8	7	20	24	-5
O=C(NCc1ccccc1)C(C(=O)c1ccc(F)cc1)n1ccccc1=O (stereo not drawn)	i	2	1	-9	-3	1	4	-10

Grouped by structure, the compounds so far with an aryl thioether with sulfur outside any ring.
SMILES	Rce1 inh	eIF4H inh	UUG fidelity	CSC inhib	PABP FP inh	MT1-MMP act inh	MT1-MMP act inh RFP	HIV Env fusion	others
CCn1c(=O)cc(SCC(=O)N2CCCCC2)c2ccccc21	i	0	2	-12	-2	11	5	20
Cc1ccc(CNC(=O)COC(=O)CSc2ccc(Br)cc2C)cc1	i	-12	-8	-9	48	3	4	-34

More structures:
SMILES	Rce1 inh	eIF4H inh	UUG fidelity	CSC inhib	PABP FP inh	MT1-MMP act inh	MT1-MMP act inh RFP	HIV Env fusion	others
O=C(N/N=C/c1ccccc1OC(F)F)c1cc(-c2ccncc2)nc2ccccc12	i	-10	/	46	-15	0	-11	-52
CCCCOc1ccc(C(=O)OCC(=O)c2c(N)n(C)c(=O)n(C)c2=O)cc1	/	/	-25	23	/	-1	0	/
Cc1ccc(NC(=S)NCc2ccc(S(N)(=O)=O)cc2)cc1Cl	i	1	-35	-6	-10	2	-4	3
COc1ccc(C(=O)Cc2cc(OC)c(OC)cc2[N+](=O)[O-])cc1	i	-2	3	4	-6	-2	-2	/
COCCn1c(SCC(=O)c2c(N)n(C3CC3)c(=O)[nH]c2=O)nnc1-c1ccc(Cl)cc1	/	/	6	-18	/	-1	3	/
COc1ccccc1NC(=O)C12CC3CC(C1)CC(c1ccc(C)cc1)(C3)C2	i	-11	-25	-6	-4	-2	-5	-59
CC(C)C1C(=O)N(Cc2cn(CCC3OCCO3)nn2)CCS(=O)(=O)N1Cc1ccc(-c2cccc(CO)c2)cc1 (stereo not drawn)	/	/	1	/	/	-4	1	14
CC(C)N1CCN(CCCc2ccccc2)CC1CCO (stereo not drawn)	i	-2	-12	-18	1	-2	0	-5
O=C(/C=C/c1ccc2c(c1)OCO2)NCCCN1CCOCC1	i	4	-1	-14	1	7	7	/
CCOC(=O)C1(CCOc2ccccc2)CCN(Cc2ccc(F)c(OC)c2)CC1	i	8	14	49	-7	-1	-7	21
COc1ccc(OC)c(Cc2nnc(CCC(=O)NCc3ccc(C)s3)o2)c1	i	-5	/	-13	-5	5	2	-9
COc1ccccc1NS(=O)(=O)c1cc(C(=O)N2CC(C)CC(C)C2)ccc1C (stereo not drawn)	i	-17	-1	-1	-5	4	-4	10
O=Cc1cn(CCC(=O)O)nc1-c1cc2ccccc2o1	i	33	-13	-9	13	2	2	2
CC1=C(C)CC(C(=O)NC(C)CCc2ccccc2)C(C(=O)O)C1 (stereo not drawn)	i	-4	/	-4	-3	4	7	-5
Cc1cc(C(=O)COC(=O)C2CCN(C(=O)c3ccc(Cl)cc3)CC2)c(C)n1CC1CCCO1 (stereo not drawn)	i	0	/	/	-18	1	-1	-12
Cc1ccc(C(=O)CCC(=O)NCc2ccc(Cl)cc2)cc1	/	/	-13	/	/	-3	0	-2
O=C(CNC(=O)C1CCCCC1)Nc1ccccc1	i	-4	/	-8	2	4	7	21
COC(=O)Cn1cnc2c(nnn2-c2cccc(OC)c2)c1=O	i	-11	6	-1	-5	3	4	7
Cc1nc(CSc2ccc(Cl)cc2)cs1	i	2	-9	3	-6	0	-1	-14
O=C1CN(C(=O)CSc2ccc(-c3ccc(F)cc3)nn2)c2ccccc2N1	/	-28	/	-5	8	12	0	-2
O=C(CCNC(=O)c1ccco1)NC(Cc1c[nH]c2ccccc12)C(=O)O (stereo not drawn)	/	/	-16	-11	/	-1	0	/
OC(COC(c1ccccc1)c1ccccc1)CN1CCCCC1 (stereo not drawn)	i	-8	-7	19	3	1	1	/
COc1ccc(CC(=O)NCC2CCCN(Cc3ccc(F)c(OC)c3)C2)cc1 (stereo not drawn)	i	-6	6	-8	2	-1	7	-5
Clc1cccc(Cl)c1C[n+]1ccc2ccccc2c1	i	?	-17	-22	?	-64	-20	9
CC1=C(C(=O)N2CCOCC2)CC(CC(=O)NC2CCCCC2)C(=O)N1CCCN1CCCC1=O (stereo not drawn)	/	/	1	/	/	5	9	3

For reference, four of the compounds above.
SMILES	Rce1 inh	eIF4H inh	UUG fidelity	CSC inhib	PABP FP inh	MT1-MMP act inh	MT1-MMP act inh RFP	HIV Env fusion	others
OC(COC(c1ccccc1)c1ccccc1)CN1CCCCC1 (stereo not drawn)	i	-8	-7	19	3	1	1	/
COc1ccc(CC(=O)NCC2CCCN(Cc3ccc(F)c(OC)c3)C2)cc1 (stereo not drawn)	i	-6	6	-8	2	-1	7	-5
Clc1cccc(Cl)c1C[n+]1ccc2ccccc2c1	i	?	-17	-22	?	-64	-20	9
CC1=C(C(=O)N2CCOCC2)CC(CC(=O)NC2CCCCC2)C(=O)N1CCCN1CCCC1=O (stereo not drawn)	/	/	1	/	/	5	9	3

(cont.)
SMILES	Rce1 inh	eIF4H inh	UUG fidelity	CSC inhib	PABP FP inh	MT1-MMP act inh	MT1-MMP act inh RFP	HIV Env fusion	others
CCOC(=O)Cn1c(=O)sc2ccccc21	i	-8	-7	-3	-7	1	4	-1
Cc1ccc(NC(=O)C2CCC2)cc1S(=O)(=O)N1CCCCCC1	i	/	8	-15	/	6	-7	-15
Cn1c(/N=C/c2c(O)ccc3ccccc23)nc2ccccc21	i	15	10	20	14	6	1	4
CC(=O)N(Cc1ccccc1)C(CC(=O)NCc1ccccc1)C(=O)O (stereo not drawn)	/	/	-3	/	/	3	2	-12
N#Cc1ccc(OCC(=O)NC(=O)NC2CCS(=O)(=O)C2)cc1 (stereo not drawn)	/	/	-7	/	/	-2	2	7
CC(C)(CNC(=O)c1cccc(S(=O)(=O)N2CCCCC2)c1)N1CCOCC1	/	/	7	/	/	-4	5	63*
COc1ccc(C2C(C#N)=C(N)Nc3nc4ccccc4n32)cc1 (stereo not drawn)	i	0	/	11	-22	6	-1	-18
COc1ccc(NC(=O)CN(c2ccc(Cl)cc2)S(C)(=O)=O)cc1OC	i	-5	-15	45	15	1	-3	23
Cc1ccc(N2C(=O)C3N=NN(CC(=O)N4N=C(c5cccc6ccccc56)CC4c4ccccc4)C3C2=O)cc1 (stereo not drawn)	i	10	/	-2	6	-6	-11	9
Cc1cccc(OCC(=O)NC2CC(C)(C)NC(C)(C)C2)c1	i	3	-9	-11	7	0	1	-2
O=C(COC(=O)c1c(F)cccc1F)Nc1ccc2[nH]c(=O)[nH]c2c1	i	57*	/	-7	11	-1	3	-49	eIF4H inh retest=87*;PABP FP inh retest=46
CC(=O)N/C(=C\c1ccccc1)C(=O)OCC(=O)c1ccccc1	/	/	-10	12	/	3	-5	-3
CCN1C(=O)/C(=C/N(C)C)c2ccccc21	i	1	-2	-11	8	2	9	-19
CCOC(=O)C1CCCN(C(=O)c2cn(-c3ccccc3)nc2-c2cccnc2)C1 (stereo not drawn)	i	/	/	/	/	-2	-4	-18
O=C(CSc1nnc(SCc2ccccc2)s1)N/N=C/c1c(Cl)cccc1Cl	i	4	/	11	10	3	-3	10
CC1CCN(c2nc3c(c(=O)[nH]c(=O)n3C)n2CCSc2ncccn2)CC1	/	/	-5	/	/	-1	0	30
Cc1nn(-c2ccccc2)c(Cl)c1C(=O)NCC(=O)O	i	-2	-5	-16	-2	-3	4	/
